Assay outcomes from PubChem BioAssay.
Biofilm kill mix = mixtures killing C. albicans biofilm. C. albicans biofilm persisters + clotrimazole, fluorescence viability; primary screen in compound mixtures of four per well. inhibition, % at 7.6 µM. actives 0.02% (n = 120,000). AID 1242;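 active = inhibition above 30.3% in the primary screen of four-compound pools, then above 30% when the compound was retested; inconclusive = passed the primary limit but could not be retested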;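 note: compounds exposed to preformed 24 h biofilms for 48 h; the number belongs to the whole pool; some results filed as inactive read as strong as hits; inactives centre near 12; 0% = biofilm with clotrimazole alone and 100% = kill control; retested singly at about 60 µM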
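Incubation: 24 h biofilm formation, then 48 h compound exposure, 37 °C | Material: C. albicans biofilms | Buffer or medium: RPMI/MOPS medium, pH 7.0 | Measured by: 2-h Alamar Blue fluorescence, 535/590 nm excitation/emission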
The depositor's hits bear a star; ? = inconclusive.

mol,Biofilm kill mix
O=C(COC(=O)c1ccc[nH]c1=O)Nc1ccc(S(=O)(=O)N2CCCC2)cc1,21
COc1ccc(-c2nn(-c3ccccc3)cc2/C=N/NC(=O)c2cccc(S(=O)(=O)Nc3ccccc3OC)c2)cc1,9
Cc1ccc(NC(=O)C2CCCN(C(=O)c3ccc(Cl)cc3)C2)cc1 (centres undefined),8
COc1ccc(COc2cc(-c3cccc(OC)c3)nc3ccc(NC(=O)c4ccccc4)cc23)cc1,7
CC1CCN(c2ccc(NC(=O)c3cccnc3Cl)cc2)CC1,22
O=C(Nc1nc2cc3c(cc2s1)OCO3)c1cccc(N2C(=O)CCC2=O)c1,16
COC(=O)c1c(N2C(=O)Nc3ccccc3N2O)sc(C)c1C,6
CSc1ccccc1NC(=O)COC(=O)c1c[nH]c(=O)[nH]c1=O,15
CCOc1cc(CNn2cnnc2SCC(=O)NC(C)(C)C)ccc1OCC(=O)NC(C)(C)C,9
CN(C)c1nc(N(C)C)nc(N2CC(CCl)OC2=N)n1 (centres undefined),17
Cc1ccc(NC(=O)CSc2nsc(SCC(=O)Nc3ccc(C)cc3C)c2C#N)c(C)c1,14
O=C(O)c1ccc(CNC(=O)c2ccccc2NC(=O)c2cccc([N+](=O)[O-])c2)cc1,12
O=C(N/N=C/c1cccnc1)c1cc(-c2cccs2)nc2ccccc12,-4
COc1c2ccoc2c(OC)c2oc(=O)ccc12,18
CCOc1ccc(Cc2n[nH]c(=S)n2N)cc1,15
COc1ccccc1/C=C/C=N/n1c(-c2ccc(C)cc2)n[nH]c1=S,9
O=C(O)CSc1ncnc2scc(-c3ccccc3)c12,29
CN(CCC#N)C(=O)COC(=O)c1ccc(Cl)cc1O,9
CCOc1ccccc1-c1c2cc(O)c(=O)cc-2oc2cc(O)c(O)cc12,22
O=C(O)c1ccccc1/C=N/Nc1ccc(S(=O)(=O)N2CCCC2)cc1[N+](=O)[O-],17
Cc1cccc(NC2=C(Cl)C(=O)OC2OC(=O)c2ccco2)c1 (centres undefined),10
Cc1cc(C)cc(OCC(=O)NN2C(=O)c3ccccc3C2=O)c1,6
Cc1ccc(CNC(=O)CSc2nc3ccsc3c(=O)n2Cc2ccc(C(=O)O)cc2)cc1,26
COc1ccc(Cn2c(=O)cc(C)[nH]c2=S)cc1,4
O=C(NCc1ccccc1)/C(NC(=O)c1ccccc1)=C(/Sc1ccccn1)c1ccccc1,10
COc1ccc(Cn2nnnc2C(CC(C)C)N2CCC(C(N)=O)CC2)cc1 (centres undefined),3
COc1ccc(NCc2ccccc2[N+](=O)[O-])cc1OC,4
Cc1nc2ccccc2n1CC(=O)NC1CCCCCC1,15
CC1CCCN(S(=O)(=O)c2ccc(S(=O)(=O)N3CCC4(CC3)OCCO4)cc2)C1 (centres undefined),13
CCOC(=O)c1c(CSC(=N)N)n(-c2ccccc2)c2cc(Br)c(OC(C)=O)cc12,6
O=C(O)/C(=C\c1cn(-c2ccccc2)nc1-c1cccnc1)NC(=O)c1ccccc1,9
CNS(=O)(=O)c1ccc(NC(=O)c2cnn3c(C(F)F)cc(-c4ccccc4)nc23)cc1,30
CCC(C)NCC(=O)Nc1ccc([N+](=O)[O-])cc1C(=O)Nc1ccccc1F (centres undefined),18
COC(=O)c1c(NC(C)=O)sc(C(=O)Nc2ccccc2C)c1C,24
CCOc1cc(NC(=S)NCC2CCCO2)c(OCC)cc1NC(=O)CC(C)C (centres undefined),12
O=C(Cc1ccc(Cl)cc1)NCc1nc(-c2ccccc2)no1,12
CC12CCC(C(=O)Nc3nc4ccccc4s3)(OC1=O)C2(C)C (centres undefined),10
CSCCC(=O)N1CCCC(CNC(=O)c2ccc(-c3ccccc3)cc2)C1 (centres undefined),11
Cc1cccc(OCC(=O)Nc2ccccc2F)c1,6
O=C(NC(=O)N1CCSCC1)c1c(Cl)cccc1Cl,12

An excerpt from above in order of heavy-atom count, falling.
mol,Biofilm kill mix
CCOc1cc(NC(=S)NCC2CCCO2)c(OCC)cc1NC(=O)CC(C)C (centres undefined),12
COC(=O)c1c(NC(C)=O)sc(C(=O)Nc2ccccc2C)c1C,24
O=C(Cc1ccc(Cl)cc1)NCc1nc(-c2ccccc2)no1,12
O=C(NC(=O)N1CCSCC1)c1c(Cl)cccc1Cl,12

Following part
mol,Biofilm kill mix
CCN(CC(=O)Nc1ccccc1OC)CC(=O)Nc1ccccc1-c1ccccc1,7
Cc1c(C)c2ccc(OCC(=O)N3CCOCC3)c(C)c2oc1=O,16
Cc1ccc(NC(=O)COc2ccccc2C(=O)NCCN(C)C)cc1,13
O=C(Cc1n[nH]c(=O)c2ccccc12)OCC(=O)N(Cc1ccccc1)Cc1ccccc1,7
O=C(c1ccc(Oc2ccc([N+](=O)[O-])cc2Cl)cc1)N1CCCC1,1
O=C(CCCCCCN1C(=O)c2ccccc2C1=O)Nc1nccs1,12
Nn1cc(-c2ccccc2)nc1SCC(=O)Nc1cccc(S(N)(=O)=O)c1,23
CN(C)/C=C1\C(=O)N(c2ccc(Cl)c(Cl)c2)CS1(=O)=O,13
COc1ccc(Br)cc1C(=O)Nc1cccc2ncccc12,20
O=C1NC(c2ccccc2)CCC1(Cl)Cl (centres undefined),12
O=C1NC(=O)/C(=C\c2ccc(OCc3cnc(Cl)s3)cc2)S1,3
O=C(NNc1c(Cl)cncc1Cl)c1sccc1Cl,25
Cc1cccc(CN2CCc3c(OCC(=O)N4CCCc5ccccc54)cccc3C2=O)c1,12
COc1cc(OC)cc(C(=O)Nc2ccc(S(=O)(=O)Nc3cc(C)on3)cc2)c1,3
Cc1ccc2nc(-c3ccc(N)cc3)sc2c1,16
Cc1cccc(C)c1OCC(O)CNS(=O)(=O)c1ccccc1C(=O)N1CCCCC1 (centres undefined),3

Other compounds follow:
SMILES	Biofilm kill mix
CCOc1ccccc1CN1CCN(Cc2cn(C)nc2-c2ccccc2)CC1CCO (centres undefined)	0
CCOc1cccc(NC(=O)c2cnccc2C(F)(F)F)c1	15
O=C(Cn1cnc2ccccc2c1=O)Nc1ccc(S(=O)(=O)N2CCCC2)cc1	6
CC(=O)Nc1ccc(NC(=O)CN(c2cccc([N+](=O)[O-])c2)S(C)(=O)=O)cc1	18
COc1ccc(/C=C2/NC(=O)N(CC(=O)Nc3cccc(C)c3)C2=O)cc1O	19
O=C(COc1ccc([N+](=O)[O-])cc1)Nc1ccc(N2CCCC2)cc1	13
O=C1N/C(=C/c2cccn2-c2ccccc2)C(=O)N1Cc1ccccc1F	8
CSc1ccc(N/N=C(/C#N)S(=O)(=O)C(C)(C)C)cc1	14
CN(C)S(=O)(=O)c1cccc(NC(=O)CSc2ncnc3ccccc23)c1	10
O=C(Nc1ccc2c(c1)nc1n2CCN(C2CCCCC2)C1)c1ccco1	?
O=C(CCn1c(=O)sc2ccccc21)Nc1cccnc1	13
COCCNC(=O)CN1C(=O)NC2(CCCCCC2)C1=O	12
CCCn1c(C(C)NC(=O)c2ccccc2)nc2ccccc21 (centres undefined)	14
O=C(COc1cccc2cccnc12)NNC(=S)Nc1ccccc1	20
CC(=O)Nc1ccc(-n2nnnc2SCC(=O)NCc2cccs2)cc1	-7
Cc1nnsc1-c1c(C(=O)Oc2ccccc2)c(C)nn1-c1ccccc1	16
CCN(CCC#N)c1ccc(/C=N/Nc2nc(C)cc(=O)[nH]2)c(C)c1	19
COc1cccc(C(=O)N=c2sc3cc(S(C)(=O)=O)ccc3n2C)c1	14
Cc1cccc(NC(=O)/C=C/c2ccc([N+](=O)[O-])s2)c1	25
COc1ccc(C2c3[nH]c4ccccc4c3CCN2Cc2cccn2-c2ncccn2)cc1C (centres undefined)	27
O=C(COC(=O)c1ccc2c(c1)S(=O)(=O)c1ccccc1C2=O)NC1CC1	10
CCOC(=O)c1c(CSc2ccc(C)cc2)n(C)c2cc(Br)c(O)c(CN(C)C)c12	14
CCN1C(=O)/C(=C2/Sc3ccccc3N2CC)S/C1=N\c1ncn[nH]1	12
Cc1ccn2cc(C34CC5CC(CC(C5)C3)C4)nc2c1	3
NC(=O)c1ncc(C(F)(F)F)cc1Oc1cccnc1	16
NC(=O)c1ccc2c(=O)n3c(-c4cccs4)csc3nc2c1	9
CCCCCC(=O)Cc1cc(O)cc2c1C(=O)Oc1cc(O)c(C(=O)O)c(CCCCC)c1O2	11
CN1C(=O)C(CC(=O)NC2CCCCC2)SC1=Nc1ccccc1 (centres undefined)	9
O=C1CN(S(=O)(=O)c2cc(Cl)ccc2Cl)CCN1	0
O=C(Nc1ccc(-c2cnco2)cc1)c1ccccc1	16
Cc1cc(-c2ccccc2)n2ncnc2n1	27
COC(=O)C1=C(C(=O)c2ccccc2)C(c2ccccc2)n2nnnc2N1 (centres undefined)	18
COc1cccc(CC(NC(C)=O)C(=O)NC2CCN(C(=O)C3CC3)CC2)c1OC (centres undefined)	20
O=C(Sc1ccccc1)c1cccc(Cn2cc(C(F)(F)F)ccc2=O)c1	13
NC(=O)Cc1ccc2sc(-c3ccccc3)nc2c1	3
CCOC(=O)c1c(NC(=O)CSc2nnc(C)s2)sc2c1CCC(CC)C2 (centres undefined)	13
O=C(Nc1ccc(Cl)cc1)c1ccc(-c2ccccn2)s1	6
Cc1ccc(/C(O)=C2\C(=O)C(=O)N(CC(C)O)C2c2ccccn2)cc1 (centres undefined)	-5
Cn1cc(C(=O)N/N=C/c2cccc([N+](=O)[O-])c2)c2ccccc21	7
CCCOc1ccc(/C(O)=C2/C(=O)C(=O)N(CCCn3ccnc3)C2c2ccc(C)o2)cc1 (centres undefined)	25
COc1cnc(-c2ccccn2)nc1Oc1ccccc1	14
Clc1ccc(C2NCCc3sccc32)cc1 (centres undefined)	7
CCN(CC)S(=O)(=O)c1ccc(OC)c(NC(=O)COc2ccc3c(C)cc(=O)oc3c2)c1	12
COc1cc(/C=C/C(=O)NCCn2c(C)cc3ccccc32)cc(OC)c1OC	14
O=C(Nc1ccccc1)c1nc2ccccc2s1	14
CC1(C)C2CCC1(C)C(OC(=O)C[n+]1ccccc1N)C2 (centres undefined)	24
COc1ccc(-c2nnc(SCc3ccccn3)n2C)cc1	19
CCc1nnc(NC(=O)Cc2sc(C)nc2-c2ccc(C)cc2)s1	17
COc1ccc(NS(=O)(=O)c2ccc(N3CCOCC3)c(NC(=O)c3ccccc3Br)c2)cc1	16
COc1cc(OC)cc(C2=NCCN2)c1	25
Cc1nnc(SCc2cccc([N+](=O)[O-])c2)[nH]c1=O	12
Cc1c(C(c2cccs2)c2c(C)n(C)n(-c3ccccc3)c2=O)c(=O)n(-c2ccccc2)n1C	10
CC(Oc1ccc(Cl)cc1Cl)C(=O)NC(=S)N1CCc2ccccc21 (centres undefined)	11
S=C(NC1CCCCC1)NC1CC2C=CC1C2 (centres undefined)	12
CCOC(=O)c1sc(Nc2ccc(F)cc2)nc1C	12
COc1ccc(C(=O)Nc2nc(C)cs2)cc1S(=O)(=O)N1CCCC1	3
CCCNC(=O)CSc1nccn1Cc1ccc(OC)cc1	13
CCc1ccc(NC(=O)C(C)OC(=O)CCC(=O)c2cccs2)cc1 (centres undefined)	17
N#CC(C#N)=C(Nc1ccccc1)c1ccccc1	4
Cc1cc(-c2ccccc2)nc(-c2ccccc2)c1C	3

More compounds
SMILES	Biofilm kill mix
COC(=O)CNC(=O)c1sc2ncn(CC(=O)Nc3ccc(C)c(Cl)c3)c(=O)c2c1C	13
O=C(N/N=C/c1ccsc1)c1cc(-c2ccncc2)nc2ccccc12	16
CCOc1cc(C(=O)NC(=S)Nc2cccnc2)cc(OCC)c1OCC	10
Cn1cc[nH]c1=S	9
COc1ccc(C2/C=C\CN(S(=O)(=O)c3ccc(-c4ccccc4)cc3)CC(=O)N2Cc2ccc(F)cc2)cc1 (centres undefined)	20
Cc1oc(-c2ccccc2)cc1C(=O)Nc1cccc(/C=C\C(=O)O)c1	14
COC(=O)c1ccc(Nc2c([N+](=O)[O-])c(=O)oc3ccccc23)cc1	13
O=S(=O)(c1ccc(NC(=S)Nc2ccc(OC(F)F)cc2)cc1)N1CCOCC1	17
CCCCN(CCCC)Cc1ccc(C(=O)NNC(=O)Nc2ccccc2)o1	16
COc1ccc(N(C(C)C(=O)N/N=C/c2ccc(OCC(C)C)cc2)S(C)(=O)=O)cc1 (centres undefined)	15
Cc1cccc(NC(=O)c2cc([N+](=O)[O-])ccc2NC2CCCCC2)c1	17
CCCc1nnc(NC(=O)CCC(=O)N2CCN(c3nc(C)cc(C)n3)CC2)s1	19

7 entries drawn at random from the list so far:
SMILES	Biofilm kill mix
COc1ccc(C2/C=C\CN(S(=O)(=O)c3ccc(-c4ccccc4)cc3)CC(=O)N2Cc2ccc(F)cc2)cc1 (centres undefined)	20
O=S(=O)(c1ccc(NC(=S)Nc2ccc(OC(F)F)cc2)cc1)N1CCOCC1	17
CCCCN(CCCC)Cc1ccc(C(=O)NNC(=O)Nc2ccccc2)o1	16
Cc1oc(-c2ccccc2)cc1C(=O)Nc1cccc(/C=C\C(=O)O)c1	14
CCOc1cc(C(=O)NC(=S)Nc2cccnc2)cc(OCC)c1OCC	10
COC(=O)CNC(=O)c1sc2ncn(CC(=O)Nc3ccc(C)c(Cl)c3)c(=O)c2c1C	13
COc1ccc(N(C(C)C(=O)N/N=C/c2ccc(OCC(C)C)cc2)S(C)(=O)=O)cc1 (centres undefined)	15

Next section
SMILES	Biofilm kill mix
Cc1csc(NC(=O)c2ccc(C)c(S(=O)(=O)N3CCOCC3)c2)n1	5
O=C(OCc1ccc(COC(=O)c2cccnc2Cl)cc1)c1cccnc1Cl	-4
O=C(COC(=O)/C=C/c1cccc(F)c1)Nc1ccc(Cl)cn1	16
CC(=O)c1ccc2noc(-c3ccc(C)cc3)c2c1	26

This is a subset. The share of hits here may be higher or lower than overall.
